# TRPV1 potentiator: potentiators of human vanilloid receptor 1 (TRPV1); Q8NER1; TRPV1-expressing cells, Fluo-8 calcium influx, capsaicin EC20 potentiation; host cell line not named in the record; control for the full effect not named in the record; potentiation, % at 8.33 µM; 320,000 compounds, 0.02% hits; active means potentiation above 80%; inconclusive means 30% to 80%; inactive means below 30%; note: 0% is about no effect
# Target sequence (Q8NER1 whole entry, looked up): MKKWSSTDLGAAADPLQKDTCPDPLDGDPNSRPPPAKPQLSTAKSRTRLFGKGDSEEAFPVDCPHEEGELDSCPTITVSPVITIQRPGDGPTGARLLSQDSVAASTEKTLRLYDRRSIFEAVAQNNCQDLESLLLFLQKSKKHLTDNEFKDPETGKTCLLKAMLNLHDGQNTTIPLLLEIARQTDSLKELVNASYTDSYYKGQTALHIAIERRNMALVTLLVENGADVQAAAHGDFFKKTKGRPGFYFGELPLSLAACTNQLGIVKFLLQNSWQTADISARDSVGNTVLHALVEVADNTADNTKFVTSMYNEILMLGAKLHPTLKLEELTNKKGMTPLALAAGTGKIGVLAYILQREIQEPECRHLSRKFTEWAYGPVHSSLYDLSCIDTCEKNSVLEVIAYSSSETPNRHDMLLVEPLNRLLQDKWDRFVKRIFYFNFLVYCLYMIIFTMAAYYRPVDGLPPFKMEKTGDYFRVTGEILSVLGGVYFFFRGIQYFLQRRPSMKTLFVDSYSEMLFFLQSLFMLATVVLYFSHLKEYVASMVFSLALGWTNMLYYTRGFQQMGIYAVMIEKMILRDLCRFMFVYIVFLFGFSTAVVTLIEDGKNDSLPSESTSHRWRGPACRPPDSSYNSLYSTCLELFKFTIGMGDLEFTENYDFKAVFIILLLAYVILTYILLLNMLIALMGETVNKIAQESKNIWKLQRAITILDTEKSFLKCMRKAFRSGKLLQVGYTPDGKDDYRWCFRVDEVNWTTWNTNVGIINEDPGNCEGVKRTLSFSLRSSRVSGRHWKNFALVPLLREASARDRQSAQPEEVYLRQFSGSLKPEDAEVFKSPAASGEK
#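 TRPV1-expressing cells were cultured overnight at 35.5C and loaded with Fluo-8 calcium dye for 40 to 90 min at room temperature. After a 10 s baseline, compound was added and calcium influx was read kinetically for 3 min (ex 480/em 520 nm).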
# TRPML1 blocker: human mucolipin-1 channel inhibition | 390,000 compounds, 0.02% hits | TRPML1-inducible cells, Ca2+ dye fluorescence, FDSS; stronger effect = lower value; inhibition of EC80 agonist-evoked calcium signal | activity change, negative = inhibition, % (no concentration beside the values) | AID 624415 | Q9GZU1; in the data active means activity change below about -50%; inconclusive means about -30% to -50%; inactive means above about -30%;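 note: stimulus is agonist 54-4 at its EC80 concentration; % is set by controls: 0 for no effect and ±100 for the full control effect; compound concentration not given in the record; the text of the record puts the active cut at -80%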
#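 Tet-induced TRPML1-DL cells loaded with Ca8 no-wash calcium dye were read kinetically on FDSS. Compound addition was followed by EC80 agonist 54-4 (4 uM final); inhibition was read over 110 s.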
# ClpP mod: qHTS Assay for Activators of ClpP. ATP-dependent Clp protease proteolytic subunit (Bacillus subtilis (strain 168)), P80244. purified B. subtilis ClpP, FRET peptide cleavage, 20 min. Potency, µM (titrated, usually from 57.5 µM), for inactives: at the top dose activity change, negative = active. 340,000 compounds, 1.9% hits; active = well fitted falling curve with a large enough effect; inconclusive = small, poorly fitted or top-dose-only effect; inactive = no such curve, though single readings can be large or run the other way; note: potency is the fitted concentration of half-maximal effect; the source files actives as falling curves though it sought activators and does not explain the sign; nearly all actives have a fitted effect of over 65% in size; many hits overshoot -100%
# Target sequence (P80244 whole entry, looked up): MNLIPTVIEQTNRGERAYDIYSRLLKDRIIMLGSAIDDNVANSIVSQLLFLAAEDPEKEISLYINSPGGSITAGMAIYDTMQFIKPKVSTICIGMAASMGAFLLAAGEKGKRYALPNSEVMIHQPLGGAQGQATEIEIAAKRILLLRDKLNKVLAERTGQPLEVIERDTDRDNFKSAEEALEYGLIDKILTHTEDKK
#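 Purified B. subtilis ClpP, 10 microg/mL final in Tris/HCl pH8 with KCl, BSA, glycerol and Tween-20, cleaved an Abz/nitrotyrosine-quenched decapeptide. Fluorescence (ex 320, em 430) was read at 0 and 20 min at room temperature. Delta was normalized to 5.8 microM ADEP and DMSO/no-enzyme controls.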
# PINK1 expr mod: modulators of PINK1 expression; AID 624263; 410,000 compounds, 0.2% hits; Potency, µM (highest dose often 76.6 µM), for inactives: at the top dose activation (PINK1 increase), usual class: activators; PINK1 immunofluorescence, high-content cytometry, 24 h; active = well fitted activation curve with a large enough effect; inconclusive = small, poorly fitted or top-dose-only effect; inactive = flat fitted curve, though single readings scatter; cell line not stated here;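 note: potency is the fitted concentration of half-maximal effect; % of control where 0% means no effect; nearly all actives have a fitted effect of over 65% in size; a mitochondrial uncoupler was the plate control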
#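 Measures PINK1 amount and localization on or inside mitochondria by immunofluorescence. Stable cells get compounds at 5 concentrations for 24 hours before fixation and staining; CCCP controls included.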
# Menin-MLL FL inh: menin-MLL binding inhibition, fluorescein peptide; Fluorescence polarization, fluorescein-MLL peptide displacement from menin; FP activity change, % at 61.4 µM; 290,000 tested, under 10 active; AID 1766; inconclusive = falling polarisation curve, or a change in total fluorescence; inactive = total fluorescence flat and polarisation flat or rising; no compound was filed as active; the % refers to the polarisation; negative = inhibition;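 note: % of control where 0% means no effect; inhibitors lower the polarisation; unlabelled MLL peptide was the positive control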
# Sfp PPTase inh: Sfp phosphopantetheinyl transferase inhibition; Q9F4F7; Biochemical Sfp PPTase activity, qHTS; Potency, µM, for the others: max response, negative = inhibition, most hits filed as inhibitors; 310,000 compounds, 3.5% hits; AID 1490; active = well fitted inhibition curve with a large enough effect; inconclusive = small, poorly fitted or top-dose-only effect, or another doubt; inactive = no such curve, though single readings can be large or run the other way;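 note: the enzyme is Sfp with the accession as filed and its product quenches rhodamine fluorescence; potency is the fitted concentration of half-maximal effect; 0% = enzyme reaction without inhibitor and -100% = no enzyme wells; top concentration of the series not given in the record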
#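 Compounds were incubated with enzyme (final 15 nM) for 15 min at room temperature before substrate addition started the reaction. Fluorescence at 525 nm excitation, 598 nm emission was recorded immediately and after 30 minutes.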
# TRPML1 ag: agonists of human TRPML1 channel; activation, % (test concentration not listed); 410,000 compounds, 0.12% hits; TRPML1-expressing cells, Ca2+ dye fluorescence, FDSS; host cell line not named in the record; reference of the full effect not given here; in the data active = activation above about 50%; inconclusive = about 30% to 50%; inactive = below about 30%; note: 0% is about no effect; the text of the record puts the active cut at 80%
#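 Kinetic FDSS Ca2+ read in Tet-induced TRPML1-DL cells (ABD Ca8 dye plus quencher, 45-90 min RT loading): baseline, then compound, then 110 s agonist window; EC80 agonist 54-4 at 4uM final added afterwards for a 110 s antagonist window.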
# Numbers without * were called inactive; ? = inconclusive; · = not tested or not shown; [ ] = dose if it differs, or a comment.
Molecule,TRPV1 potentiator,TRPML1 blocker,ClpP mod,PINK1 expr mod,Menin-MLL FL inh,Sfp PPTase inh,TRPML1 ag
Cc1sc2ncn(CC(=O)N(C)C3CCCCC3)c(=O)c2c1C,24,-5,·,1.3%,·,·,0.4
O=C(c1cccs1)N1CCN(Cc2ccccc2)CC1,-18,-7,-1.6%,-0.6%,3.7,28%,0.3
C/C(=N\NC(=S)NCc1ccccc1)c1ccco1,?,46,-0.7%,1.5%,-0.2,-12%,0.8
Cc1c(O)cc2n(c1=O)-c1ccccc1C2(C)C,9,34,3.0%,-2.2%,1.0,15%,-0.8
O=C(CC1SCCNC1=O)Nc1cccc(Cl)c1 (stereo not drawn),1,-9,-1.8%,0.1%,2.4,10%,-0.3
COc1ccc(N2CC(c3nc(-c4ccccc4C)no3)CC2=O)cc1Cl (stereo not drawn),·,12,0.5%,2.3%,·,·,2.0
COc1ccc(N(C)C(=O)c2cc3c(Cl)nc4ccccc4c3s2)cc1,3,3,-0.5%,-2.0%,1.4,-21%,-0.4
CCCN1CCC(=NNC(=O)CSc2cc(C)c(Br)cc2C)CC1,4,-7,-2.9%,-1.5%,8.6,-17%,-1.1
Cc1cc(C)c(NC(=O)CCc2c(C)noc2C)c(C)c1,-2,5,0.6%,-0.3%,·,·,4.6
Cc1ccc(-c2ccc(/C=N\NC(=O)c3cc4c(ccc5ccccc54)o3)o2)cc1[N+](=O)[O-],0,13,-4.0%,6.2%,-0.5,-11%,0.0
CCOC(=O)[C@H]1Nc2ccc(Cl)cc2[C@@H]2[C@H]1C1CC(c3ccccc31)N2C(=O)OCc1ccccc1 (stereo partly drawn),·,·,-6.0%,1.0%,·,·,-0.3
CSc1ccc(C(=O)C2CCCN(C(=O)Cn3cnnn3)C2)cc1 (stereo not drawn),-14,-9,-6.5%,1.5%,-9.6,10%,0.0
COc1ccc(N(C(=O)c2snc(C(N)=O)c2N)C(C(=O)NCc2ccc(F)cc2)c2ccc(C)o2)c(OC)c1 (stereo not drawn),1,18,·,-2.8%,-0.7,6%,1.4
Cc1nc2ccccc2c(=O)n1NC(=O)c1ccccc1Cl,-2,-6,1.6%,12%[38.3 µM],4.3,28%,-0.4
CC(CC(F)(F)F)N1CCC(n2nccc2NC(=O)CCOc2ccccc2)CC1 (stereo not drawn),-1,0,-0.5%,-0.3%,·,11%,-0.2

# Single records, from the list above:
# Listed for `Cc1sc2ncn(CC(=O)N(C)C3CCCCC3)c(=O)c2c1C` : TRPV1 potentiator = 24; TRPML1 blocker = -5; ClpP mod = ·; PINK1 expr mod = 1.3%; Menin-MLL FL inh = ·; Sfp PPTase inh = ·; TRPML1 ag = 0.4
# Listed for `O=C(CC1SCCNC1=O)Nc1cccc(Cl)c1` (stereo not drawn) : TRPV1 potentiator = 1; TRPML1 blocker = -9; ClpP mod = -1.8%; PINK1 expr mod = 0.1%; Menin-MLL FL inh = 2.4; Sfp PPTase inh = 10%; TRPML1 ag = -0.3

# Going on with the list.
Molecule,TRPV1 potentiator,TRPML1 blocker,ClpP mod,PINK1 expr mod,Menin-MLL FL inh,Sfp PPTase inh,TRPML1 ag
COc1ccc(OCCCC(=O)OCC(=O)Nc2ccc(Cl)cn2)cc1,1,21,-0.6%,-0.5%,·,·,0.5
Cc1cc(-c2ccc(C)c(S(=O)(=O)NCCc3ccccc3)c2)on1,·,28,-0.1%,-0.9%,·,·,2.4
Cc1c(NC(=O)C(C)Sc2n[nH]c(N)n2)c(=O)n(-c2ccccc2)n1C (stereo not drawn),4,10,-0.9%,0.2%,3.4,-8%,-0.4
COC(=O)c1cc(OC)c(OC)cc1NC(=O)Cn1nnc(-c2ccccc2Cl)n1,-15,12,?,18%[38.3 µM],2.8,-2%,1.1
COc1ccc(OC)c(-c2noc(N3CCN(c4ccc(C(C)=O)cc4)CC3)n2)c1,·,7,-23%,-0.7%,·,·,0.4
Cc1cc(C)nc(NC2=NCC(=O)N2c2cccc(Cl)c2)n1,9,-6,1.0%,0.5%,2.7,14%,-0.3
COCCn1c(=O)c(-c2ccc(OC)cc2)nc2cnc(Oc3ccc(OC)cc3)nc21,·,·,·,-0.6%,0.8,-6%,·
N#CC[n+]1cccc(Br)c1,·,·,-1.2%,-0.9%,·,·,0.7
COc1ccc(OC)c(CCNC(=O)c2ccc(CS(=O)Cc3ccc(Cl)cc3)o2)c1 (stereo not drawn),27,0,0.9%,0.6%,·,4%,-0.4
COc1cc(OC)c(OC)cc1/C=N/NC(=O)c1ccc(CSc2nc(C)cc(C)n2)cc1,·,4,·,0.0%,·,·,0.2
COC(=O)CCCn1c(-c2ccc(C)cc2)c(C)n2c3c(=O)n(C)c(=O)n(C)c3nc12,·,13,2.1%,0.1%,·,·,4.8
Cc1noc(C)c1S(=O)(=O)Nc1ccc2c(c1)CC(=O)N([C@H](C)CO)C[C@H](C)[C@@H](CN(C)CC1CC1)O2,·,10,-1.6%,4.8%,·,·,0.1
CCc1nc2c(OCC(=O)C(C)(C)C)cccn2c1N(C)C(=O)c1ccc(C)cc1,·,27,-1.5%,5.8%,·,·,5.7
Cc1cccc(C)c1NC(=O)Cn1c(=O)n(CC2CCC(C(=O)NCCc3ccccc3)CC2)c(=O)c2ccccc21 (stereo not drawn),·,0,-4.1%,1.3%,·,·,-0.4
CN=C1C([N+](=O)[O-])=CC=C2C1=NC1(CCCCC1)N2O,4,19,-0.6%,2.9%,?,8.9µM*,-0.6
Cc1ccc(CCNC(=O)C2CCCN(S(=O)(=O)c3c(C)nn(C)c3C)C2)cc1 (stereo not drawn),-17,13,-0.8%,1.2%,-4.0,10%,-0.1
Cc1nn(C)c(Cl)c1CN1CCC(Oc2ccc(C(=O)N3CCCC3)cc2)CC1,-3,6,-0.9%,-1.6%,·,6%,1.1
CCOc1cc(C2C3=C(CCCC3=O)Nc3ccc4ncccc4c32)ccc1O (stereo not drawn),20,-10,·,4.5%,0.0,-3%,2.4
Cc1cc(C)cc(NC(=O)C2CCCN2S(=O)(=O)c2cccc3nsnc23)c1 (stereo not drawn),·,-14,1.5%,3.0%,·,·,-1.3
CC(C)=CCN1CCN(Cc2nc(-c3ccc(F)cc3)cs2)CC1CCO (stereo not drawn),-6,1,-2.2%,-1.1%,5.5,10%,1.1
Cc1ccc2cc(C#N)c(N3CCN(C)CC3)nc2c1,-2,-3,?,-2.3%,5.9,2%,-0.7
O=C(NNC(=O)c1cc(Br)c(Br)s1)c1ccncc1,2,2,?,-1.9%,·,·,-0.6
CCCCC12CN3CC(C)(CN(C1)C3c1c[nH]c3ccccc13)C2=O (stereo not drawn),·,16,1.1%,2.6%,·,·,-0.3
COc1ccc(C2CCc3cc4c(cc3C2=NOC(C)=O)OCO4)cc1OC (stereo not drawn),·,-11,-16%,0.2%,·,·,-0.2
O=c1oc(CCO)cc2ccc(C#Cc3ccsc3)cc12,-15,42,4.6%,-0.3%,·,·,-0.7
Cc1ccccc1CNC(=O)/C=C\C(=O)O,9,-19,-2.4%,3.5%,-2.9,13%,0.2
CCn1cc(C(=O)NCCc2ccc(OC)c(OC)c2)c(=O)c2cc(S(=O)(=O)N3CCc4ccccc4C3)ccc21,·,13,?,2.2%,·,·,-0.2
Cc1ccnc(NC2OC(=O)c3ccccc32)c1 (stereo not drawn),-6,13,-14%,6.9%,1.4,11%,-0.1
C[C@@H]1CN([C@@H](C)CO)C(=O)CCCn2cc(nn2)CO[C@H]1CN(C)C(=O)c1ccc2ccn(C)c2c1,·,-3,-21%,2.3%,·,·,-0.5
Cn1ccnc1C1CCCCN1C(=O)c1cc(COc2ccc(F)cc2Cl)on1 (stereo not drawn),-1,22,·,-0.9%,-1.2,19%,0.5
Nc1ncnc2c1ncn2[C@@H]1O[C@H](C(=O)N2CCSC2)[C@@H](O)[C@H]1O,·,-10,1.0%,0.6%,·,·,-0.1
CCn1cc(/C=N\NC(=O)c2ccc(F)cc2)cn1,10,-3,?,-1.4%,-0.5,?,-0.1
CC(=O)c1c(C)nn(-c2ccccc2)c1C,23,-4,·,1.6%,-1.6,13%,0.1
O=C(CN1C(=O)C2CC=CCC2C1=O)NCC1COc2ccccc2O1 (stereo not drawn),11,20,1.3%,0.9%,-2.0,-18%,-0.5
Nc1nc(-c2cccnc2)nn1C(=O)c1ccc(F)cc1,7,-19,·,-1.1%,-0.4,1%,0.3
COc1ccc(CCNC(=O)/C=C/c2ccc(S(=O)(=O)N3CCOCC3)cc2)cc1,-11,1,-3.3%,2.5%,·,·,1.5
CCCSc1nc(=S)n(Cc2ccccc2)c(C)c1C(C)=O,-5,7,·,3.2%,0.3,-3%,-1.2
COCCNc1cc(-c2ccccc2)nc2cc(-c3cccc(F)c3)nn12,-6,29,·,0.3%,2.4,-3%,2.0
O=c1[nH]c(/C(Cl)=C/c2cccc(C(F)(F)F)c2)nc2cc(Cl)ccc12,4,26,?,26%,0.6,12%,-0.2
O=[N+]([O-])c1ccccc1S(=O)(=O)Oc1ccc(/C=N/n2cnnc2)cc1,-6,10,0.2%,2.1%,-0.3,13%,0.2
CCOC(=O)CSc1nnc(Cn2c(=O)sc3ccccc32)n1-c1ccccc1C,-7,7,-3.1%,1.3%,4.9,9%,0.2
CN(C(=O)COC(=O)c1cc(=O)[nH]c2ccccc12)c1ccccc1,·,22,-1.7%,0.4%,·,·,0.5
Oc1cc(O)c(CN2CCOCC2)cc1CN1CCOCC1,·,-2,-3.5%,-1.0%,·,·,-0.1
CC(NC(=O)CCC(=O)NC(C)C1COc2ccccc2O1)C1COc2ccccc2O1 (stereo not drawn),30,-9,0.5%,-0.6%,-1.6,10%,0.0
O=C(Cn1nnc(-c2ccc(Cl)cc2)n1)NCc1ccc(F)cc1,·,-1,-1.7%,0.7%,·,·,0.2
O=C1CCC2(CCCC2)c2ccccc21,·,4,-0.2%,1.0%,·,·,-0.1
Cc1onc(-c2ccccc2)c1C(=O)N/N=C/C=C/c1ccccc1,-2,6,·,0.2%,3.1,19%,5.0
COc1cc(NC(=O)c2cc3nc(C4CC4)cc(C(F)(F)F)n3n2)c(OC)cc1Cl,-3,42,2.1%,2.7%,11,9%,4.2
